Menin-MLL FL inh: inhibitors of human menin-MLL interaction, wild-type MLL peptide. Fluorescence polarization, fluorescein-MLL peptide displacement from menin. FP activity change, % at 61.4 µM. 290,000 tested, under 10 active. AID 1766; inconclusive = falling polarisation curve, or a change in total fluorescence; inactive = total fluorescence flat and polarisation flat or rising; no compound was filed as active; the % refers to the polarisation; negative = inhibition;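 also: % of control where 0% means no effect; inhibitors lower the polarisation; unlabelled MLL peptide was the positive control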
TRPV1 PAM: potentiators of human vanilloid receptor 1 (TRPV1). Q8NER1. TRPV1-expressing cells, Fluo-8 calcium influx, capsaicin EC20 potentiation; host cell line not named in the record; control for the full effect not named in the record. potentiation, % at 8.33 µM. 0.02% of 320,000 active. AID 540277; active means potentiation above 80%; inconclusive means 30% to 80%; inactive means below 30%; also: 0% is about no effect
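Fluo-8 calcium influx in TRPV1-expressing cells, kinetic read (ex 480/em 520 nm). Compound added and read 3 min for agonist activity, followed by capsaicin at EC20 final and 2 min further read for enhancement.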
Sfp inh: inhibitors of Bacillus subtilis Sfp phosphopantetheinyl transferase | Biochemical Sfp PPTase activity, qHTS | Potency, µM, without a hit: max response, negative = inhibition, actives largely listed as inhibitors | 3.5% of 310,000 active; active = well fitted inhibition curve with a large enough effect; inconclusive = small, poorly fitted or top-dose-only effect, or another doubt; inactive = no such curve, though single readings can be large or run the other way;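 also: the enzyme is Sfp with the accession as filed and its product quenches rhodamine fluorescence; potency is read from the fitted curve at half-maximal effect; 0% = enzyme reaction without inhibitor and -100% = no enzyme wells; top concentration of the series not given in the record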
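After 15 min at room temperature with compound, 15 nM Sfp received 5 uM rhodamine-CoA plus 12.5 uM BHQ-2-ybbR (50 mM Hepes pH 7.6, 10 mM MgCl2). Rate came from the fluorescence difference over 30 min, ex 525/em 598 nm.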
gsp antagonist: gsp mutant antagonism; gsp-mutant cells, cAMP HTRF, 30 min; control for the full effect not named in the record; Potency, µM (series often up to 76.9 µM), without a hit: top-dose activity change, negative = inhibition, usual class: inhibitors; 0.4% of 340,000 active; AID 624288; active = falling curve of any shape with a large fitted effect; inconclusive = falling curve, mostly with a smaller effect; inactive = flat or rising curve; cell line not stated here;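 also: intracellular cAMP measured with PDE inhibitor Ro 20-1724 present during compound exposure; potency is read from the fitted curve at half-maximal effect; % is scaled to controls: 0 for no effect and ±100 for the full control effect; nearly all actives have a fitted effect of over 65% in size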
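Cells in G418 medium, seeded 16-24 h, 37C; buffer exchange to DPBS + 1 mM CaCl2, 0.5 mM MgCl2, 0.05% BSA; cpds in DMSO + […] (300 uM stock), 30 min 37C; HTRF cAMP detection.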
ClpP mod: qHTS Assay for Activators of ClpP. ATP-dependent Clp protease proteolytic subunit (Bacillus subtilis (strain 168)), P80244. purified B. subtilis ClpP, FRET peptide cleavage, 20 min. Potency, µM (top dose mostly 57.5 µM), without a hit: at the top dose activity change, negative = active. 1.9% of 340,000 active; active = well fitted falling curve with a large enough effect; inconclusive = small, poorly fitted or top-dose-only effect; inactive = no such curve, though single readings can be large or run the other way; also: potency is read from the fitted curve at half-maximal effect; the source files actives as falling curves though it sought activators and does not explain the sign; nearly all actives have a fitted effect of over 65% in size; many hits overshoot -100%
Target sequence (P80244 whole entry, looked up): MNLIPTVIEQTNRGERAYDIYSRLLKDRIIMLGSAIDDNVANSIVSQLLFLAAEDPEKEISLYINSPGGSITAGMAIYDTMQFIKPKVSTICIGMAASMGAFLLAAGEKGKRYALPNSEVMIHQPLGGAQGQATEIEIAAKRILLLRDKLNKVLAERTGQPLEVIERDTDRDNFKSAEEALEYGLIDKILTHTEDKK
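Buffer: 100 mM Tris/HCl pH8, 100 mM KCl, 0.05% low protease BSA, 2.5% glycerol, 0.01% Tween-20. ClpP 10 microg/mL final; 20 min RT; delta FRET normalized to ADEP and DMSO controls.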
TRPML1 blocker: blocks the human TRPML1 channel. activity change, negative = inhibition, % (concentration not given with the values). TRPML1-inducible cells, Ca2+ dye fluorescence, FDSS; stronger effect = lower value; inhibition of EC80 agonist-evoked calcium signal. AID 624415. 0.02% of 390,000 active. Q9GZU1; in the data active means activity change below about -50%; inconclusive means about -30% to -50%; inactive means above about -30%;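 also: stimulus is agonist 54-4 at its EC80 concentration; % is scaled to controls: 0 for no effect and ±100 for the full control effect; compound concentration not given in the record; the text of the record puts the active cut at -80%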
Target sequence (Q9GZU1 whole entry, looked up): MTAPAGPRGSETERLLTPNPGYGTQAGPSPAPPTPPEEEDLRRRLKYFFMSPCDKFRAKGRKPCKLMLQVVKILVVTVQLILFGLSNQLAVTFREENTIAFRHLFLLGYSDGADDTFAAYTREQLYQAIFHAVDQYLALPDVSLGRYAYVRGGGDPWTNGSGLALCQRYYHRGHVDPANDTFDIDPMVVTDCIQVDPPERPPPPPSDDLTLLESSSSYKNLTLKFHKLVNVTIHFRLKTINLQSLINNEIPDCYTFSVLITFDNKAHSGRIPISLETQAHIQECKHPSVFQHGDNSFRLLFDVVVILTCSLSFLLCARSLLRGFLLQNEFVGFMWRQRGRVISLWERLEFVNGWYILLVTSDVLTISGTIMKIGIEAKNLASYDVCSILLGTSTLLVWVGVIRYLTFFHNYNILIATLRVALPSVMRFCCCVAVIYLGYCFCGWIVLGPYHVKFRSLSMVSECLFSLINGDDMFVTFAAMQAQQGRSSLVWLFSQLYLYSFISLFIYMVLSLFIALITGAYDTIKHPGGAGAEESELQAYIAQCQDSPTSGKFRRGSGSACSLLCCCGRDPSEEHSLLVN
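Tet-induced TRPML1-DL cells loaded with Ca8 no-wash calcium dye were read kinetically on FDSS. Compound addition was followed by EC80 agonist 54-4 (4 uM final); inhibition was read over 110 s.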
gsp agonist: gsp mutant agonism. gsp mutant cells, cAMP HTRF, 30 min; control for the full effect not named in the record. 0.13% of 340,000 active. Potency, µM (top dose mostly 76.9 µM), for inactives: top-dose activation (cAMP increase), usual class: activators; active = well fitted activation curve with a large enough effect; inconclusive = small, poorly fitted or top-dose-only effect, or another doubt; inactive = no such curve, though single readings can be large or run the other way; cell line not stated here;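 also: phosphodiesterase inhibitor Ro 20-1724 added with compounds to block cAMP breakdown; potency is read from the fitted curve at half-maximal effect; nearly all actives have a fitted effect of over 60% in size; about a fifth of the inactives were tested at one dose only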
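Cells stably selected in G418 were plated at 2000/well, grown 16-24 hr, then given compounds in DMSO with the PDE inhibitor […] (300 uM solution added) for 30 min at 37C; cAMP was read by HTRF.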
The depositor's hits bear a star; ? = inconclusive; nt = no result given; & = joins results of further samples; [ ] = dose if it differs, or a comment. Not a hit list, and some 4.9% of all compounds hit somewhere here.

SMILES	Menin-MLL FL inh	TRPV1 PAM	Sfp inh	gsp antagonist	ClpP mod	TRPML1 blocker	gsp agonist
CCOC(=O)c1cc(NC(=O)N(CC)CC)c(C)nc1C	-1.1	22	1%	-1%	-5.5%	5	24%
CCN(CC)CCNCC(O)(c1ccc(Cl)cc1)c1ccc(Cl)cc1	-2.3	1	5%	2%	nt	5	5%[15.4 µM]
COCCNc1cc(C)c(C#N)c2nc3ccccc3n12	18	-9	3%	-9%	?	-8	18%
COc1ccc(CCN(CC(=O)NC2CCCC2)C(=O)Cn2nnc(-c3ccc(C)o3)n2)cc1OC	6.9	5	-7%	-4%	nt	0	-3%[15.4 µM]
N#CCCn1c(=S)[nH]c2ccccc21	-1.5	-3	-27%	-3%	2.4%	6	-16%
Cc1cc(C)cc(OCC(=O)N/N=C/c2ccc([N+](=O)[O-])o2)c1	-1.5	1	-11%	3%	54%	7	3%[15.4 µM]
COCCNC(=O)c1cc(-c2ccccc2)nn1CC1CC(c2cccc([N+](=O)[O-])c2)=NO1 (stereo not drawn)	nt	nt	nt	-14%	-0.2%	14	-8%
Cn1c(CCNC(=O)c2ccco2)nc2cc(NC(=O)NC3CCCCC3)ccc21	-3.3	-17	10%	9%	-1.0%	-10	-1%
CCN1C(=O)C(CC(=O)Nc2ccc(OC)cc2)N(Cc2ccc3c(c2)OCO3)C1=S (stereo not drawn)	6.4	-12	-24%	1%	-3.9%	-9	0%
CC(=O)C(Sc1nc(-c2ccc(F)cc2)nc2c1c(=O)n(C)c(=O)n2C)C(C)=O	0.1	-1	13%	nt	nt	nt	nt
Cc1nn(Cc2ccc(F)cc2)c(C)c1NC(=O)c1cnn2c1NC(c1cccs1)CC2C(F)(F)F (stereo not drawn)	7.1	-1	5%	-12%	0.7%	8	13%
CC1(C)Cc2ccccc2-c2nc3n(c(=O)c21)CCCS3	4.6	-11	0%	-3%	nt	-21	?

2 records picked at random from the list so far, as already listed:
SMILES	Menin-MLL FL inh	TRPV1 PAM	Sfp inh	gsp antagonist	ClpP mod	TRPML1 blocker	gsp agonist
Cc1cc(C)cc(OCC(=O)N/N=C/c2ccc([N+](=O)[O-])o2)c1	-1.5	1	-11%	3%	54%	7	3%[15.4 µM]
CCOC(=O)c1cc(NC(=O)N(CC)CC)c(C)nc1C	-1.1	22	1%	-1%	-5.5%	5	24%

(next part)
SMILES	Menin-MLL FL inh	TRPV1 PAM	Sfp inh	gsp antagonist	ClpP mod	TRPML1 blocker	gsp agonist
Cc1ccccc1Nc1nnc(SCC(=O)NCc2ccco2)s1	-0.5	2	-14%	3%	-1.3%	-13	-3%
COc1ccc(S(=O)(=O)Nc2cc3c4c(c2)CCC(=O)N4CCC3)cc1	nt	8	nt	2%	0.5%	-1	6%
COc1cccc(CNC(=O)c2nnn(CC(=O)Nc3cc(Cl)ccc3C)c2N)c1	-0.8	1	4%	5%	-2.2%&1.3%	-7&11	?
CCOc1ccc(NC(=O)CC2C(=O)N(c3ccccc3)C(=O)N2CCOC)cc1 (stereo not drawn)	-1.2	-3	13%	1%	1.0%	2	?
Nc1cccc(CN2CCCC2)c1	1.2	3	2%	1%	1.6%	-17	-3%
CCOC(=O)C1(CCOC)CCCCC1=O (stereo not drawn)	nt	nt	nt	nt	-1.1%	20	21%
CCOc1ccc(N(CC(=O)Nc2cccc(Cl)c2)S(=O)(=O)c2c(C)noc2C)cc1	4.7	nt	35%	-22%	-4.2%	-3	27%
COc1ccc(C(=O)OCC(=O)Nc2ccc3c(c2)OCO3)cc1S(=O)(=O)N1CCOCC1	nt	-2	nt	6%	1.6%	-8	-7%[15.4 µM]
CCOC(=O)c1nc(C)n(-c2ccc(Cl)cc2)n1	-2.3	2	-15%	3%	-2.4%	-16	?
Cc1ccc(NC(=O)CN2C(=O)c3ccccc3S2(=O)=O)c(C)c1	2.7	-1	16%	8%	nt	-7	2%
Cc1ccc(S(=O)(=O)Nc2c(NC3CCCCC3)c3ccccc3oc2=O)cc1C	nt	-9	6%	-21%	-11%	14	27%
COc1ccccc1-n1c(SCC(=O)NC2CCS(=O)(=O)C2)nc2ccccc2c1=O (stereo not drawn)	nt	-4	nt	8%	-0.7%	4	-12%
COc1ccc(C2(c3ccc(OC)cc3)NC(=O)N(CC(=O)Nc3ccc(OC(F)F)cc3)C2=O)cc1	nt	2	25%	-8%	-2.6%	5	8%[15.4 µM]
CC1=CCC2C(=O)N(c3ccc(N4CCOCC4)cc3)C(=O)C2C1 (stereo not drawn)	3.7	2	8%	-3%	0.1%	9	2%[15.4 µM]
Cc1cc(OCCCC(=O)NCCc2ccccn2)ccc1Cl	-3.6	-10	7%	-5%	nt	-15	12%
Cc1ccc(/C(O)=C2\C(=O)C(=O)N(C)C2c2ccccc2[N+](=O)[O-])cc1 (stereo not drawn)	5.6	-6	-13%	-3%	-0.9%	-5	-6%[15.4 µM]
CCc1nc(-c2ccccc2O)n(-c2ccccc2)n1	3.4	-12	8%	-3%	-7.9%	2	-5%
Cc1ccc(S(=O)(=O)CCC(=O)OCC(=O)Nc2cc(S(=O)(=O)N3CCOCC3)ccc2C)cc1	nt	4	nt	-9%	-2.7%	-20	-11%
Cc1ccccc1NS(=O)(=O)c1ccc2c(c1)NC(=O)CCS2	nt	0	10%	-2%	-0.9%&-0.8%	-9&2	8%
COc1ccccc1-c1noc(CSc2nc(C)cc(=O)[nH]2)n1	5.4	23	20%	-10%	nt	34	15%[15.4 µM]
CCOC(=O)N1CCN(C(=O)/C(=C/c2ccc(OC)c(OC)c2)NC(=O)c2ccccc2)CC1	3.7	1	7%	nt	nt	-7	-4%[15.4 µM]
O=C(Nc1ccccc1F)Nc1ccccc1OC(F)F	2.9	-5	14%	8%	-0.2%	8	5%
CCOc1cc(CNc2cccc3ccccc23)cc(Br)c1OCC(=O)NC(C)(C)C	0.7	5	17%	-14%	8.9µM*	41	-4%
O=C(CS(=O)(=O)c1cn(Cc2ccc(Cl)cc2)c2ccccc12)N1CCCC1	0.1	nt	-10%	-5%	3.4%	11	0%
Cc1noc(C)c1S(=O)(=O)Nc1ccc2c(c1)C(=O)N([C@@H](C)CO)C[C@@H](C)[C@@H](CN(C)CC1CCCCC1)OCCCC[C@@H](C)O2	nt	nt	nt	nt	-5.0%	-10	-42%[inhibitor]
Cc1ccc(C)c(C(=O)COC(=O)C(C)N2C(=O)C3C4CCC(C4)C3C2=O)c1 (stereo not drawn)	nt	2	-3%	-4%	-0.2%	-8	8%
COc1ccc(-c2csc(=Nc3ccccc3)n2CCO)cc1	3.7	16	-7%	?	-2.0%	-2	29%[15.4 µM]
CCOC(=O)CNS(=O)(=O)c1ccc(S(=O)(=O)N2CCCC2)cc1	6.3	30	21%	-3%	0.7%	4	5%
O=C(CN1CCN(c2ccccc2)CC1)N1CCc2[nH]c3ccccc3c2C1	3.2	-17	3%	-18%	0.7%	2	-19%
COc1cc(/C=N\Nc2nncn2N)ccc1OC(C)=O	4.1	26	-25%	-6%	nt	-5	-41%[inhibitor]
O=C(Nc1ccc(Cl)c(C(F)(F)F)c1)NC1CC2CCCC(C1)N2C1CC1 (stereo not drawn)	nt	nt	nt	16%	-0.7%	-7	7%
O=C1CSc2ccc(S(=O)(=O)NCc3ccccc3Cl)cc2N1	nt	28	6%	-3%	-0.8%	-8	-43%[inhibitor]
CCCc1cc(-c2nc(N)ncc2-c2csc(C)n2)c(O)cc1OC	0.6	2	0%	4%	0.2%	5	-39%[inhibitor]
CC(C)C(=O)Nc1cccc(NC(=O)c2ccc([N+](=O)[O-])cc2Cl)c1	2.0	-10	-3%	9%	0.9%	-2	-11%
CCN(CC)C(=O)CSc1nnc(-c2cnccn2)n1-c1ccccc1	-0.9	-8	13%	-3%	-0.1%	4	-61%[inhibitor]
CN(c1cccc(NC(=O)Nc2ccc(Cl)cc2)c1)S(C)(=O)=O	3.9	-20	1%	-14%	0.9%	-5	-2%
O=C(CSc1ccccc1)N1CCN(c2ccccn2)CC1	-0.7	-4	13%	-8%	nt	20	-13%[15.4 µM]
Cc1cc(C)n2cc(CSc3nnnn3-c3ccccc3)nc2n1	1.9	-19	4%	13%	-18%	-21	?
O=C(Nc1nnc(SCc2ccc(F)cc2)s1)c1cccnc1Cl	0.1	-3	26%	?	nt	24	-10%
Cc1ccccc1Oc1ccc2c(c1)[C@@H]1C[C@H](N(C)C(=O)c3cccnc3)[C@H]([C@H](C)O)C(=O)N1CC2	nt	nt	nt	nt	0.2%	-21	7%
N#Cc1ccc(/C=N/NC(=O)c2ccccc2F)cc1	-1.6	-23	19%	22%	4.9%	-7	-31%[inhibitor]
O=C(CNC(=S)N(Cc1ccc(F)cc1)C1CCCCC1)NCC1CCCO1 (stereo not drawn)	-1.1	-19	20%	14%	nt	28	-10%[15.4 µM]
Cc1nc2ccc(NC(=S)NC3CC3)cc2nc1C	2.6	-1	4%	11%	-2.6%	2	3%
COc1ccc2c(c1)CC(C(=O)Nc1ccc(Cl)cc1)/C(=N/O)O2 (stereo not drawn)	5.9	3	1%	11%	2.0%	nt	-30%
CCOc1ccccc1N1CCN(CC(=O)Nc2nc(C)c(C(=O)N(C)C)s2)CC1	-5.2	-6	-5%	8%	-2.7%	24	2%[15.4 µM]
COc1ccccc1N/C(=N/S(=O)(=O)c1ccc(C)cc1)c1ccccc1	9.5	-17	-25%	-13%	0.4%	-26	9%[15.4 µM]
O=C1/C(=C\c2cccc(O)c2O)SC(=S)N1Cc1ccccc1	13	-1	40µM*	-9%	nt	16	10%
N#CCC1c2ccccc2CCN1C(=O)Nc1ccc(Cl)cc1 (stereo not drawn)	3.1	-13	11%	-9%	-0.2%	-10	-41%[inhibitor]
COc1cc(NC(=O)C(C)N2CCN(C(=O)C3CC3)CC2)cc(OC)c1 (stereo not drawn)	nt	3	nt	16%	0.2%	37	-28%
COc1cc(OC)cc(C(C(=O)NCc2ccccc2)N(Cc2ccco2)C(=O)c2ccno2)c1 (stereo not drawn)	8.5	18	-19%	-10%	-1.8%	37	-16%
